Source: PubChem BioAssay
PrP UTR inh: suppresses PrP 5' UTR mRNA reporter expression | inhibition, % (test concentration not listed) | cell-based PrP 5' UTR mRNA reporter, plate reader | actives 0.35% (n = 340,000);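 active = every replicate at 50% or more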;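 note: 0 = median of the neutral control wells; tested in H4 reporter cells; numbers are from one replicate; inactives centre near -14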
Autofluor counter: compound fluorescence in toxin protease inhibitor counterscreen | compound autofluorescence counterscreen, microsphere flow cytometry; stronger effect = higher value | fluorescence intensity (test concentration not listed) | actives 3.1% (n = 360,000);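 active = at least 3 SD above the mean of all compounds, about 16000 in these data; inconclusive = too few beads counted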;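 note: 100 nL of 1 mM stock went into each well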
Sa RN4220 lethal: kills Staphylococcus aureus RN4220; S. aureus RN4220 growth, OD600, 16 h; inhibition, % (no concentration beside the values); actives 0.33% (n = 330,000);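 active = z-score of -3 or lower and OD600 up to 0.18 on both plates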;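 note: plate controls were untreated cells for no effect and reference antibiotic for full effect; stock transfer was 100 nL into about 80 µL; one replicate is shown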
ugtP null kill: kills S. aureus RN4220 lacking UgtP; S. aureus RN4220 ugtP deletion, OD600 growth, 16 h; some inactives read as strong as hits; growth inhibition, % (test concentration not listed); actives 0.54% (n = 330,000);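 active = z-score under -3 and OD600 up to 0.15 on both plates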;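 note: plate controls were untreated wells for no effect and antibiotic for full effect; wells of about 80 µL received 100 nL stock; the first replicate is given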
BJeLR lethal: BJeLR cell viability loss | BJeLR (HRASV12) viability, CellTiter-Glo ATP luminescence, 48 h; reference of the scale not given here | inhibition, % (test concentration not listed) | actives 0.17% (n = 300,000);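 active = replicate mean above 50%; inconclusive = above 50% but judged a plate artefact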;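 note: 50 nL library stock added to about 25 µL; numbers are from one replicate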
Mtb hypoxia inh: Mtb hypoxia fluorescent reporter inhibition. fluorescence inhibition, % (no concentration beside the values). AID 1159583. actives 0.1% (n = 300,000). M. tuberculosis hypoxia-regulated fluorescent reporter, fluorescence;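 active = 35 to 45% if threefold the growth effect, above 45% if 1.5-fold the growth effect; inactive = the rest, general growth blockers included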;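 note: wells of about 50 µL received 100 nL stock; 0% = vehicle wells and 100% = reference inhibitor wells; whole bacteria with a GFP reporter of the hypoxia response; strong numbers were not always called active; many hits fall short of the cut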
Mtb hypoxia inh growth: recorded beside Mtb hypoxia inh, whose call it bears; growth inhibition, %; measured here: M. tuberculosis growth (absorbance);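 0% = vehicle and 100% = reference antibiotic; read after six days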
An asterisk follows results filed as active; ? = inconclusive; · = no result given.

SMILES	PrP UTR inh	Autofluor counter	Sa RN4220 lethal	ugtP null kill	BJeLR lethal	Mtb hypoxia inh	Mtb hypoxia inh growth
C/C(C=NNc1ccc2nncn2n1)=C\c1ccccc1	·	·	-0.6	-20	·	1	9
CCCCCC(=O)Nc1ccc(S(=O)(=O)NC2=NCCCCC2)cc1	-26	3632	3.9	3	·	13	8
CCCCCn1nc(C(=O)N(CCOC)c2c(N)n(CCCC)c(=O)[nH]c2=O)c2ccccc2c1=O	-10	?	2.3	7	7	2	-6
Cc1cccc(CCNC(=O)CC2C(=O)NCCN2CC2CCCCC2)n1 (configuration not stated)	-23	4658	4.9	9	13	8	-2
COc1ccc(-c2oc3ccccc3c2C(=O)OCc2ccc([N+](=O)[O-])cc2)cc1	-12	4241	·	·	5	·	·
CCOC(=O)c1cnn(-c2ccccc2)c1-n1cccc1C(=O)C(=O)Nc1ccc(OC)cc1	2	3517	0.2	16	3	·	·
CC1CCCC(NC(=O)c2cccc(S(=O)(=O)N3CCN(c4ccccc4)CC3)c2)C1C (configuration not stated)	-5	5771	3.9	-1	14	4	4
Cc1cnc(CN(C)C(=O)C2CCC(=O)N(CCc3cccc(F)c3)C2)[nH]1 (configuration not stated)	3	6199	0.7	3	-1	4	0
Cn1/c(=N/NC(=O)c2ccccc2Br)sc2ccccc21	-48	3882	·	·	-2	·	·
O=C(Nc1cc(S(=O)(=O)Nc2ccc(Cl)cc2)ccc1N1CCCCC1)c1ccc(F)cc1	-13	2613	-0.3	-25	1	3	1
Cc1cc2nc(/C=C/c3nc4cc(C)c(C)cc4[nH]3)[nH]c2cc1C	-21	3786	·	·	-11	·	·
O=C(COC(=O)c1ccc(F)cc1F)NCc1ccc2c(c1)OCO2	-12	3348	-3.3	-3	·	6	10
COc1ccc(C=NNC(=O)CCC(=O)Nc2ccc(Br)cc2)c(OC)c1	·	·	0.7	20	·	10	0
CC(=O)c1ccc(NC(=O)CCSCCC(=O)Nc2ccc(C(C)=O)cc2)cc1	-15	3227	1.3	7	6	·	·
CCOC(=O)C1=C(C)NC(=O)NC1c1ccc([N+](=O)[O-])o1 (configuration not stated)	-20	5118	2.5	8	-2	-1	14
CCOC(=O)C1CCN(C(=O)CCS(=O)(=O)c2ccc3c(c2)CC(C)N3C(=O)CC)CC1 (configuration not stated)	-4	2507	3.9	6	3	5	0
CCn1c(C(C)NC(=O)c2ccc(C)cc2)n[nH]c1=S (configuration not stated)	-22	2607	0.2	0	3	-4	-3
Cc1ccccc1CN(C)C(=O)CNC(=O)c1ccc2ccccc2c1	-1	3431	-1.5	11	1	13	9
CCOC(=O)c1c(NC(=O)CS(=O)(=O)c2cn(CC)c3ccccc23)sc2c1CCCCC2	-15	6044	-6.5	-19	-9	1	11
COC(=O)CNC(c1ccccc1)c1cc(Br)ccc1NS(=O)(=O)c1ccccc1 (configuration not stated)	-4	2218	14	-9	9	14	7

Whole records, quoted from the list:
Record of CCOC(=O)C1=C(C)NC(=O)NC1c1ccc([N+](=O)[O-])o1 (configuration not stated) → PrP UTR inh = -20; Autofluor counter = 5118; Sa RN4220 lethal = 2.5; ugtP null kill = 8; BJeLR lethal = -2; Mtb hypoxia inh = -1; Mtb hypoxia inh growth = 14
Record of CC(=O)c1ccc(NC(=O)CCSCCC(=O)Nc2ccc(C(C)=O)cc2)cc1 → PrP UTR inh = -15; Autofluor counter = 3227; Sa RN4220 lethal = 1.3; ugtP null kill = 7; BJeLR lethal = 6; Mtb hypoxia inh = ·; Mtb hypoxia inh growth = ·

The results go on:
SMILES	PrP UTR inh	Autofluor counter	Sa RN4220 lethal	ugtP null kill	BJeLR lethal	Mtb hypoxia inh	Mtb hypoxia inh growth
Cc1nc2ccccc2n1S(=O)(=O)N(C)C	-16	3872	4.4	-1	-7	-79	-24
CC(C)NC(=O)C(=O)Nc1cc2c3c(c1)C(C)C(=O)N3CCC2 (configuration not stated)	-5	4998	-0.8	4	1	1	-2
C/C(CC(=O)NCc1ccco1)=N\NC(=O)C(c1ccccc1)c1ccccc1	-5	3313	·	·	7	·	·
COc1c(C)cc(C(=O)C2CCCN(C(=O)Cn3ccc(C)n3)C2)cc1C (configuration not stated)	1	4342	8.0	2	1	2	7
COc1cc(NS(=O)(=O)c2ccc(NC(=O)CSC3=NCCS3)cc2)nc(OC)n1	·	·	-15	-2	-7	0	6
CC1(C)CC(=O)C=C(NCc2ccc(C(=O)O)cc2)C1	-12	?	3.7	-1	-19	-4	0
CN1CCN(Cc2cccc(Oc3ccc(Cl)cc3)c2)CC1	-36	10356	-0.6	10	-6	9	10
O=C(O)C(=Cc1c(C(=O)O)[nH]c2cc(Cl)cc(Cl)c12)c1ccccc1	·	·	6.8	1	·	3	11
CN(Cc1ccc(Cl)s1)C(=O)CN1C(=O)N(C)C2(CCCCC2)C1=O	-15	?	1.7	4	·	7	-2
COC(=O)c1c(C)oc2ccc(N(C(=O)Oc3ccccc3)S(=O)(=O)c3ccc(Cl)c([N+](=O)[O-])c3)cc12	-12	9283	3.3	8	5	0	8
Cc1ccc2c(COC(=O)CNC(=O)c3ccco3)cc(=O)oc2c1C	7	2874	2.7	5	·	10	5
CCCCN1CN(S(=O)(=O)c2cccs2)c2nc3ccccc3nc21	·	·	-16	0	2	2	-2
Cc1nn(C)c(C)c1CN(C)C(=O)c1nn2c(c1Br)NC(c1cccs1)CC2C(F)(F)F (configuration not stated)	-1	9252	·	·	8	·	·
CCn1c(COc2ccccc2)nnc1SCC(=O)Nc1ccc2c(c1)OCCO2	-10	3028	4.1	-3	8	6	0
Cc1cccc(N=Cc2cc3c(cc2[N+](=O)[O-])OCO3)c1	-25	9466	5.3	7	-6	15	15
COc1ccc(-c2cc(C(=O)Nc3cnn(Cc4ccccc4C)c3)no2)cc1OC	1	10300	0.1	-11	2	-6	2
CCCCCC1CC(=O)N(Cc2ccc(Cl)cc2)C(=O)N1 (configuration not stated)	-9	2450	2.4	-7	-7	5	7
COc1ccc(CCC(=NO)C2(O)CCCCC2)cc1	·	·	9.2	12	·	16	21
CC(C)(C)c1cc(C(C)(C)C)cc(S(=O)(=O)CCc2ccccn2)c1	-17	7889	11	4	3	3	-2
COc1ccc(N2C(=O)CC(SCCc3nc4ccccc4[nH]3)C2=O)cc1 (configuration not stated)	11	19552*	-0.2	3	0	1	6
COc1ccc(CCN(C(=O)C(F)(F)F)C(C(=O)NC2CCCC2)c2cccs2)cc1OC (configuration not stated)	-21	11002	2.5	3	1	7	6
CC(=O)Nc1ccc(-c2csc(NC(=O)C3CC(=O)N(c4ccc5c(c4)OCCO5)C3)n2)cc1 (configuration not stated)	-3	4458	-0.4	-3	0	-14	3
Cc1noc(/C=C/N(C)C)c1S(=O)(=O)N1CCN(c2ccc(F)cc2)CC1	-3	6155	0.4	7	5	8	1
CCCCC(=Nc1ccc(N)cc1)C1=C(O)C(C(=O)OC)C(C)(C)CC1=O (configuration not stated)	-5	6618	1.5	8	7	19	8
Cc1[nH]n(-c2cccc(Cl)c2)c(=O)c1-c1ccc(Cl)cc1	-24	3083	106*	88*	7	·	·
CN(CC(=O)NCc1ccncc1)S(=O)(=O)c1ccc(Br)cc1	-1	5582	-0.1	1	-1	-1	9
COc1ccccc1NC(=O)N1CCC(c2nc3cc(C)c(C)cc3[nH]2)CC1	19	9255	·	·	27	·	·
CC(NCCN1CCOCC1)=C(C#N)C(N)=O	·	·	5.3	0	·	7	4
Cc1cc(C(=O)NN=Cc2cccc([N+](=O)[O-])c2)c2ccccc2n1	·	·	-0.1	7	·	8	1
O=C(N/N=C/c1c[nH]c2ccccc12)c1ccn(Cc2ccc(Cl)cc2)n1	-26	5888	·	·	-4	·	·
COc1ccc(CNC(=O)COc2ccccc2C(=O)c2cnn(-c3ccccc3)c2)cc1OC	-108	3056	5.6	3	·	4	-1
CCN1C(=O)/C(=C/c2ccc(C)s2)SC1=Nc1ccc(OC)cc1	-6	2992	·	·	1	·	·
Cc1ccc(C(NC(=O)c2ccccc2)C(Cl)(Cl)Cl)cc1 (configuration not stated)	-23	2794	3.3	4	-10	2	-3
CS(=O)(=O)N1CCN(c2ccc(NC(=O)Cc3ccccc3)cc2)CC1	-9	7509	7.2	13	-9	11	1
CCCCOC(=O)Nc1cccc(Cl)c1C	-56	21233*	15	2	-12	·	·
COCC(=O)n1nc(-c2ccccc2)nc1NCc1ccc(N(C)C)cc1	-37	4371	10	3	-1	10	-4
Cc1ccc(NC(=O)Cn2c(=O)cnc3ccccc32)cc1S(=O)(=O)N(C)C	-17	2426	-0.8	2	0	0	-3
N#C/C(=C1/CCCCCN1)c1nc2ccccc2s1	-12	9763	0.3	-10	-5	-8	-7
Cc1ccc(S(=O)(=O)N(C)C)cc1NC(=O)C1CCCC1	-24	6656	2.2	5	3	4	-3
O=C(NCCC1CCCCN1S(=O)(=O)c1ccc(Cl)cc1)C(=O)NCc1ccco1 (configuration not stated)	-7	5918	1.8	2	5	1	2

Molecules above that contain an NH in an aromatic ring:
SMILES	PrP UTR inh	Autofluor counter	Sa RN4220 lethal	ugtP null kill	BJeLR lethal	Mtb hypoxia inh	Mtb hypoxia inh growth
CCCCCn1nc(C(=O)N(CCOC)c2c(N)n(CCCC)c(=O)[nH]c2=O)c2ccccc2c1=O	-10	?	2.3	7	7	2	-6
Cc1cnc(CN(C)C(=O)C2CCC(=O)N(CCc3cccc(F)c3)C2)[nH]1 (configuration not stated)	3	6199	0.7	3	-1	4	0
Cc1cc2nc(/C=C/c3nc4cc(C)c(C)cc4[nH]3)[nH]c2cc1C	-21	3786	·	·	-11	·	·
CCn1c(C(C)NC(=O)c2ccc(C)cc2)n[nH]c1=S (configuration not stated)	-22	2607	0.2	0	3	-4	-3
O=C(O)C(=Cc1c(C(=O)O)[nH]c2cc(Cl)cc(Cl)c12)c1ccccc1	·	·	6.8	1	·	3	11
COc1ccc(N2C(=O)CC(SCCc3nc4ccccc4[nH]3)C2=O)cc1 (configuration not stated)	11	19552*	-0.2	3	0	1	6
Cc1[nH]n(-c2cccc(Cl)c2)c(=O)c1-c1ccc(Cl)cc1	-24	3083	106*	88*	7	·	·
COc1ccccc1NC(=O)N1CCC(c2nc3cc(C)c(C)cc3[nH]2)CC1	19	9255	·	·	27	·	·
O=C(N/N=C/c1c[nH]c2ccccc12)c1ccn(Cc2ccc(Cl)cc2)n1	-26	5888	·	·	-4	·	·

(continued)
SMILES	PrP UTR inh	Autofluor counter	Sa RN4220 lethal	ugtP null kill	BJeLR lethal	Mtb hypoxia inh	Mtb hypoxia inh growth
C=C(C)CNC(=S)N/N=C/c1c(F)cccc1F	-3	3344	·	·	-4	·	·
Cn1c(SCC(=O)C(C)(C)C)nnc1-c1cccnc1	-9	15754	0.7	1	6	3	-3
CCOC(=O)C1CCCN(S(=O)(=O)Cc2ccc(Cl)cc2)C1 (configuration not stated)	-25	3462	7.3	11	21	17	12
CCOC(=O)c1[nH]ncc1CN1CCN(Cc2ccc(C)cc2)C(CCO)C1 (configuration not stated)	-19	2286	0.4	0	-3	8	0
O=C(Cc1ccsc1)N1CCN(S(=O)(=O)c2cc(C(F)(F)F)cc(C(F)(F)F)c2)CC1	-23	4384	8.1	8	4	1	-8
CCONc1ncnc2nonc12	-15	2152	2.4	0	-1	5	-1
CCCCOc1ccc(C(=O)N(CC)CC(=O)NCc2cccs2)cc1	-8	·	0.1	-1	-11	2	3
NC(=O)CC1C(=O)N(c2ccc(F)cc2)C(=O)N1NC(=O)CCc1ccccc1 (configuration not stated)	-25	4125	3.3	9	-4	-1	8
O=C(/C=C/c1ccccc1)N1CCN(C(=O)c2ccco2)CC1	-8	8132	4.6	11	-19	10	7
COc1cc(CCN2C(=O)c3cccc4cccc(c34)C2=O)c(S(=O)(=O)NCCCO)cc1OC	-11	4468	3.8	-7	-13	-1	6
C[C@H](CO)N1C[C@H](C)[C@@H](CN(C)S(=O)(=O)c2ccccc2)Oc2c(NC(=O)Nc3ccc(C(F)(F)F)cc3)cccc2C1=O	-5	3813	25	-9	·	6	8
COc1cc(CN2CCCC(N3CCN(c4ccccc4C)CC3)C2)cc(Cl)c1O (configuration not stated)	-52	3728	1.4	4	-9	12	4
Cn1c(=O)[nH]c(=O)c2c1nc(N(CCO)Cc1ccccc1)n2CCCc1ccccc1	-18	5744	1.5	-2	1	·	·
